Mtb betalactam – beta-lactam sensitization of Mtb H37Rv; M. tuberculosis H37Rv growth with meropenem, percent inhibition; hits of this screen are not shown here; AID 434955; inhibition, % at 25 µM; actives 0.27% (n = 330,000);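 active means about 74% or more and at least 40 points above the plate without the antibiotic, then above 30% in a dose series; inconclusive means first-round hits that could not be retested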;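 further: growth measured after seven days incubation then overnight dye step; 0% = bacteria only wells and 100% = bacteria with antibiotic; twin plates without the antibiotic show which effects depend on it; some results filed as inactive read as strong as hits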
YopH PTP inh – YopH (Yersinia) phosphatase inhibition. fluorescence Ex485/Em525. inhibition, %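 (about 10 µM by stock and volumes)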. actives 0.16% (n = 140,000). AID 898;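 active means inhibition of 50% or more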;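 further: controls were vehicle for no effect and minimum signal wells for full effect; inactives centre near -20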
Mtb H37Rv – M. tuberculosis H37Rv growth inhibitors, H37Rv strain (AID 1626); actives 0.95% (n = 220,000); M. tuberculosis H37Rv growth inhibition; higher % means a stronger effect; inhibition, % at 10 µM; hits with a dose series show IC50 in µM;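 active means confirmed in a dose series; inconclusive means inhibition above 80% but not taken into the dose series; inactive means below 80% or under 30% at every dose of the series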;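 further: bacteria incubated seven days before Alamar blue readout; 0% = bacteria only wells and 100% = bacteria with antibiotic wells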
RecA splice inh – Mtb RecA intein splicing inhibition; P9WHJ3; cell-free RecA intein splicing, fluorescence; inhibition, %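 (about 9 µM by stock and volumes)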; actives 0.75% (n = 290,000); in the data active means inhibition above about 30%; inconclusive means no clear call, values can overlap the other calls;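 further: 0% = vehicle wells and 100% = reference inhibitor control wells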
Target sequence (P9WHJ3 whole entry, looked up, canonical isoform): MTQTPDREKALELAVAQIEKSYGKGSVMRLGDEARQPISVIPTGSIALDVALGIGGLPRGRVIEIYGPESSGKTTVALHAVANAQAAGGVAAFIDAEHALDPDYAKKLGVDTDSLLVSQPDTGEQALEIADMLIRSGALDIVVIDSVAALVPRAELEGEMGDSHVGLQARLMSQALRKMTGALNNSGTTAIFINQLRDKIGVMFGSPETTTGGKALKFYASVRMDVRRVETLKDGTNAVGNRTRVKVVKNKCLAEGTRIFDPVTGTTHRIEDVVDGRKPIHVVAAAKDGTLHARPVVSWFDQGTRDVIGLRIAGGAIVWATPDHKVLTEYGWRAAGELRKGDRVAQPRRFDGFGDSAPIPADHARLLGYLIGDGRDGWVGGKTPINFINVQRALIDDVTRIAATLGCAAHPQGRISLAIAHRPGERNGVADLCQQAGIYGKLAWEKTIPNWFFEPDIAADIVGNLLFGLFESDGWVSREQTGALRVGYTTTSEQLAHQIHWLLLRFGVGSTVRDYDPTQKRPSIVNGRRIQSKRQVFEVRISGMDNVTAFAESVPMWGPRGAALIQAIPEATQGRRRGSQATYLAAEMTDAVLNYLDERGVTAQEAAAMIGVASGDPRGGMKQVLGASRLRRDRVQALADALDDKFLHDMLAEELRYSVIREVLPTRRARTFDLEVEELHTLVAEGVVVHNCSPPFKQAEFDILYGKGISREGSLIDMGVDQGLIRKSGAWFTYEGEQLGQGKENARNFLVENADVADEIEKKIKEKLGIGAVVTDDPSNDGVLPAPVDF
Arbovirus anti – blocks arbovirus infection | inhibition, % at 10 µM | AID 1251 | actives 0.37% (n = 200,000) | arbovirus infection cell-based antiviral screen;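 active means inhibition from about 30%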;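 further: bluetongue infection of BSR cells; cell survival read as ATP light after 72 h; 0% = infected wells without compound and 100% = uninfected wells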
Arbovirus anti repeat – further read-out of Arbovirus anti, marked with its call; inhibition, %; measured here: 10K subset replicate screen; many hits read low in the repeat;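 first of two repeat runs on a subset; 0% = infected and 100% = uninfected wells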
Starred values were filed as active, the others as inactive; ? = inconclusive; / = no result given.

SMILES	Mtb betalactam	YopH PTP inh	Mtb H37Rv	RecA splice inh	Arbovirus anti	others
CC1(C)C(CO)=CC(=O)C2=C1SCC(=O)N2	-13	-40	-13%	0.3	-3
C=CCC1C=CCC(CC=C)N1C(=O)c1ccccc1[N+](=O)[O-] (centres undefined)	-5	-8	2%	1.3	-5
Cc1cc2c(NC3CCCCC3)ncnc2s1	-1	/	/	-0.6	/
Cc1cc2ccccn2c1C(=O)c1cccc([N+](=O)[O-])c1	11	/	4%	15	9
Cc1nc2ccccc2nc1CN1CCC(CO)(CC2CCCCO2)CC1 (centres undefined)	-3	/	1%	-7.7	7
O=C(O)c1ccccc1C(=O)Nc1ccc(-n2ccc(C(F)(F)F)n2)cc1	-3	/	-9%	/	/
CC[n+]1ccc(C)c2cc(SC(F)(F)F)ccc21	1	/	-1%	/	-2
Cc1ccc(CSc2ncnc3c2cnn3Cc2ccccc2)cc1C	15	-3	3%	1.8	-5
Cc1sc(-n2c(C)cc(/C=C3\SC(=S)NC3=O)c2C)c(C#N)c1C	9	-13	3%	2.4	-4
COc1ccccc1-n1cnnc1SC1CCOC1=O (centres undefined)	-7	4	-13%	2.1	-1
CCCOC(=O)/C(=C\c1ccc([N+](=O)[O-])o1)NC(=O)c1ccccc1	100	-6	19%	-17	-5
O=C1NCCCC1C(=O)N/N=C/c1ccc(Cl)cc1 (centres undefined)	-10	/	-6%	-0.5	/
COc1ccc(/C=C2\SC(=O)N(CCNC(=O)C3=COCCO3)C2=O)cc1	-7	/	/	0.7	/
Cc1ccc(NC(=O)c2ccc(F)cc2F)cc1	-8	/	-6%	0.4	/
CCOc1ccc(NC(=S)NN2C(C)CCCC2C)cc1 (centres undefined)	-1	-18	1%	-3.7	3

Brought forward from above: three entries; new compounds follow.
SMILES	Mtb betalactam	YopH PTP inh	Mtb H37Rv	RecA splice inh	Arbovirus anti	others
COc1ccc(/C=C2\SC(=O)N(CCNC(=O)C3=COCCO3)C2=O)cc1	-7	/	/	0.7	/
Cc1ccc(NC(=O)c2ccc(F)cc2F)cc1	-8	/	-6%	0.4	/
CCOc1ccc(NC(=S)NN2C(C)CCCC2C)cc1 (centres undefined)	-1	-18	1%	-3.7	3
CCCCN(C)C1=CC2=CC(=C(C#N)C#N)CCC2CC1 (centres undefined)	1	-55	11%	-18	-5
O=C(Nc1ccc2oc(=O)ccc2c1)c1ccc(-c2ccc(Cl)cc2)o1	1	-5	49%	-3.2	14
O=c1cc(NCc2ccco2)[nH]c(=O)n1-c1ccc(Br)cc1	-2	28	-1%	1.6	5
CCN(CC)S(=O)(=O)c1ccc(NC(=O)CCC2CCCCC2)cc1	19	-9	/	2.4	-32
S=c1[nH]nc([C@@H]2C[C@H]2c2ccccc2)n1-c1ccccc1	-1	-13	4%	-3.6	-13
CC/C(=N\NC(=S)Nc1ccc(OC)cc1)c1ccc(OC(F)F)cc1	43	-8	4%	4.0	-10
O=C(Nc1cccc(S(=O)(=O)N2CCCCC2)c1)c1ccc2c(c1)OCO2	1	-22	1%	3.9	-8
CCN(CC)CCCN=Cc1c(O)n(-c2ccccc2F)c(=O)[nH]c1=O	-3	-16	5%	-0.9	10
CN(C)C1CCN(C(=O)c2cccc(OC3CCN(S(=O)(=O)N(C)C)CC3)c2)C1 (centres undefined)	-9	/	/	-0.5	/
Cc1cc(S(=O)(=O)NC2CCCCC2)ccc1OCC(=O)NCC1CCCO1 (centres undefined)	-7	/	3%	-1.7	9
Cc1nnc(-c2cnn(C)c2N)n1Cc1ccc2c(c1)OCO2	-2	/	-10%	-3.0	-2
COCCNC(=O)C12CC3CC(C1)CC(c1ccccc1)(C3)C2	-3	/	3%	0.5	3
COC(=O)c1ccccc1NC(=O)CN1C(=O)c2ccccc2C1=O	-7	/	/	0.5	/
COc1ccc(S(=O)(=O)N2CCN(C(=O)NCc3ccc(OC)c(OC)c3)CC2)cc1	-3	/	/	1.8	/
CC1CCCC(C)N1CCCNC(=O)C1CCCN(c2ncnc3c2nc2n3CCCCC2)C1 (centres undefined)	-1	/	/	0.6	/

A stretch from further up:
SMILES	Mtb betalactam	YopH PTP inh	Mtb H37Rv	RecA splice inh	Arbovirus anti	others
CCCCN(C)C1=CC2=CC(=C(C#N)C#N)CCC2CC1 (centres undefined)	1	-55	11%	-18	-5
O=C(Nc1ccc2oc(=O)ccc2c1)c1ccc(-c2ccc(Cl)cc2)o1	1	-5	49%	-3.2	14
O=c1cc(NCc2ccco2)[nH]c(=O)n1-c1ccc(Br)cc1	-2	28	-1%	1.6	5
CCN(CC)S(=O)(=O)c1ccc(NC(=O)CCC2CCCCC2)cc1	19	-9	/	2.4	-32
S=c1[nH]nc([C@@H]2C[C@H]2c2ccccc2)n1-c1ccccc1	-1	-13	4%	-3.6	-13
CC/C(=N\NC(=S)Nc1ccc(OC)cc1)c1ccc(OC(F)F)cc1	43	-8	4%	4.0	-10

Carrying on:
SMILES	Mtb betalactam	YopH PTP inh	Mtb H37Rv	RecA splice inh	Arbovirus anti	others
O=C(CCn1c(=S)oc2ccccc21)Nc1cc([N+](=O)[O-])ccc1F	-5	/	/	7.2	/
CC[C@@]12C(=O)N(c3cccc(C)c3)C(=O)N1[C@H](c1ccc(OC)cc1)[C@@H]1C(=O)N(C(C)(C)C)C(=O)[C@@H]12	-6	/	/	0.3	/
O=C(O)Cc1cn(Cc2cccc(Cl)c2)c2ccccc12	1	/	-13%	3.2	13
COCCN1C2=C(C(=O)CC(C)(C)C2)C(c2ccc(OC)c(OC)c2)C2=C1CC(C)(C)CC2=O	2	/	/	-1.2	/
c1ccc2c(CCNc3ncnc4nc[nH]c34)c[nH]c2c1	2	-20	3%	2.6	-20
Cc1cccc(N2CCN(C(=O)c3cc(S(=O)(=O)N4CCOCC4)cn3C)CC2)c1C	-2	/	/	0.8	/
O=C(OCc1cc2ccccc2[nH]c1=O)c1ccncc1	-8	7	1%	-2.1	5
Cc1[nH]c2ccccc2c1C(c1ccccn1)c1c(C)[nH]c2ccccc12	-3	0	10%	-0.8	-26
O=C(c1ccc2nccnc2c1)N1CCCC(N2CCN(c3ccc(F)cc3)CC2)C1 (centres undefined)	-1	/	/	-0.9	/
CCCOC(=O)c1ccc(NC(=O)c2cc(=O)[nH]c3ccccc23)cc1	2	/	-1%	-0.8	/
Cc1cc(O)c(/C=N/Nc2ccc(Cl)cc2)c(=O)o1	97	3	?	-5.0	-39
Cc1cccc(NC(=O)c2cc(NC(=O)C3CCCCC3C(=O)O)ccc2N2CCCCC2)c1 (centres undefined)	-2	-32	-3%	/	8
CNC(=O)c1ccsc1NC(=O)c1ccc(Cl)s1	-4	-46	5%	-2.3	2	Arbovirus anti repeat=5
COc1ccc(NC(=O)CSc2nnnn2C)cc1	0	/	-5%	-2.3	6
CC(C)[C@H](NC(=O)[C@H](Cc1ccccc1)n1c(=O)[nH]c2ccccc2c1=O)C(=O)N[C@@H](Cc1ccccc1)C(=O)O	-2	/	/	2.5	/
Cc1ccc(/C=N/NC(=O)CSc2nc3ccccc3c(=O)n2-c2ccccc2C)s1	9	-34	1%	-1.1	5
CSC1=C(C#N)C(c2ccc(C)cc2)C2=C(CCCC2=O)N1 (centres undefined)	-2	-20	-11%	-0.2	0
CCc1cccc(C)c1Nc1nc2ccccc2n2cnnc12	3	/	/	1.8	/
Cc1ccnc(NC(=O)c2ccc(Cl)c([N+](=O)[O-])c2)c1	19	/	27%	-2.2	-1
CCN(CC(=O)Nc1ccc2c(c1)OCCO2)Cc1cc(=O)n2ccsc2n1	3	/	5%	-2.0	7
CCC(NS(=O)(=O)c1ccc(C)cc1)C(=O)N1CCN(c2ccccn2)CC1 (centres undefined)	-10	-17	-1%	-1.6	6
CCN(CC)C1CCN(C(=O)CCc2nnc(CCCCc3ccccc3)o2)C1 (centres undefined)	-5	/	-7%	-1.0	2
O=C(Nc1ccc(Cl)c(C(F)(F)F)c1)[C@@H]1CC=C[C@@H]2CCN(Cc3ccccc3)C(=O)[C@@H]21	11	/	-4%	1.8	/
CC(=O)N1CCc2cc(S(=O)(=O)NCCC(=O)NCCc3ccccc3)ccc21	-10	-6	-5%	1.2	6
COC(=O)c1ccccc1C(=O)N1CCCC(CCC(=O)NCc2ccc(F)c(F)c2)C1 (centres undefined)	-7	/	-6%	-3.2	2
Cc1ccccc1C(=O)NC1CCN(CC(=O)NCc2ccc(F)cc2)CC1	2	/	6%	1.2	0
COc1ccc(/C=C/CN2CCC(n3nccc3NC(=O)C3CC3)CC2)cc1	1	/	/	2.3	/
Cn1c(SCC(=O)N2CCN(c3ccccc3)CC2)nnc1-c1ccco1	8	7	-2%	-0.5	10
CN(CCCNS(=O)(=O)c1cccc2cccnc12)Cc1ccccc1	-2	-39	-12%	/	-4
Cc1ccc(/C=C(\C#N)C(=O)Nc2ccccn2)o1	0	/	46%	0.1	-4
CC(C)Cc1nc2n[nH]c(N)c2c2c1CCC2	-1	6	0%	-1.8	13
CCOc1ccc(N(C(C)C(=O)NCc2ccco2)S(C)(=O)=O)cc1 (centres undefined)	2	14	-8%	0.4	2
O=C(NCCN1CCOCC1)c1cc(Sc2ccc(F)cc2F)nc2ccccc12	-1	/	0%	0.6	2
COc1cccc(/C=C/C(=O)Nc2ccc3[nH]c(=O)[nH]c3c2)c1	1	/	0%	8.1	-2
O=C(O)CN(c1ccc2c(c1)OCCO2)S(=O)(=O)c1ccccc1	1	-44	-8%	-2.5	0
C/C(=N\NC(=O)c1ccc(NS(=O)(=O)c2cccs2)cc1)c1ccc(O)cc1O	-8	/	-1%	7.7	/
COc1ccc(-c2c(C(F)(F)F)oc3c(CN4CCN(C)CC4)c(O)ccc3c2=O)cc1	-9	22	-7%	-2.6	2
OCC1(CCOc2ccccc2)CCN(Cc2cccn2-c2ncccn2)CC1	-4	/	?	/	-2
CC(=O)c1c(C)[nH]c(C(=O)NC2=NCCS2)c1C	-4	-80	-5%	1.8	-4
CC(NC(=O)c1c(F)cccc1Cl)c1ccc(-n2ccnc2)cc1 (centres undefined)	-6	/	/	-1.9	/
O=C(CNC(=O)c1ccc(-c2ccccc2)cc1)OCc1c(Cl)cccc1Cl	85	10	-2%	0.1	-1
COc1cccc(-n2c(SCC(=O)Nc3nc4ccccc4s3)nc3ccccc3c2=O)c1	7	/	35%	-17	/
O=C(C1CCN(S(=O)(=O)c2ccc(F)cc2)CC1)N1CCOCC1	7	-46	-1%	/	12	Arbovirus anti repeat=6
N#Cc1ccc(C(=O)Nn2cnnc2)cc1	2	/	/	-0.9	/
COc1ccc(NC2=C(C(C)=O)C(c3ccc4c(c3)OCO4)C(C(C)=O)C(C)(O)C2)cc1 (centres undefined)	97	-6	?	-2.9	-16
COc1cc(NCCCCCCCN)c2ncccc2c1	11	52*	-11%	72*	-35
O=C(O)CCC(=O)NNC(=O)COc1ccc(Cl)cc1Cl	0	/	-1%	1.7	4
Cn1c(O)c(C(=Nc2ccc(F)cc2)c2ccccc2Cl)c(=O)n(C)c1=O	-13	/	-8%	9.1	/
O=C(CNC(=O)c1ccco1)NCC(=O)OCc1c(F)cccc1Cl	-8	/	/	-2.3	/
CCN(CC)CC(O)COc1ccc2c(c1)c(C(C)=O)c(C)n2-c1ccccc1 (centres undefined)	-2	-7	7%	-1.8	-24
CC(C)(C)OC(=O)NCC(=O)Oc1cc2oc(=O)cc(-c3ccccc3)c2cc1Cl	-10	-25	-6%	-138	-30
Cc1ccc(NC(=O)CC(=O)Nc2ccc(C)c(C)c2)cc1C	24	/	/	-0.6	/
C/C(NCCCn1ccnc1)=C(\C#N)C(N)=O	-4	-37	4%	-1.5	3
COc1cccc(CNC(=O)c2c(C)nn(-c3ccccc3)c2C)c1	0	/	/	-5.2	/
Cc1ccc(N)c2c1OCCC2=O	0	-7	37%	-1.0	2
Cc1cc(C)cc(CC2CC(=O)N(c3nc(C)cc(C)n3)C2=O)c1 (centres undefined)	2	-29	-10%	1.3	-2
CC(C)COCC1CC2(CC(C)C(=O)CC2=O)C(=O)O1 (centres undefined)	-4	-47	2%	9.8	3
CCOC(=O)n1c(=O)n(C)c2ccc(Br)cc21	-4	/	-3%	-8.2	-2
Cc1nnc(NC(=O)c2cccc(F)c2)s1	-9	-22	/	-1.9	12
COc1ccc(S(=O)(=O)N2CCOCC2)cc1NC(=O)CN1CCCCCC1	-5	/	3%	2.0	0
O=C1CSC(=Nc2cccc([N+](=O)[O-])c2)N1	-4	/	/	-1.6	/
O=C(O)CCCC(=O)Nc1cccc(C(=O)Nc2ccccc2C(=O)O)c1	2	/	-5%	0.4	5
O=C1/C(=C\c2ccc(O)c(O)c2)N=C2CCCCCN12	-1	/	-1%	2.2	/

Screening results as filed in PubChem BioAssay.

The list is partial; rates above refer to the full screens.
